Source: PubChem
S aureus helic: blocks Staphylococcus aureus DNA helicase | inhibition, %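 (tested at about 80 µM)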 | actives 0.05% (n = 120,000) | purified S. aureus helicase, fluorescence unwinding assay; about half of the hits fall short of the stated cut;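 active means both duplicates at 50% or more, or one of them with a favoured structure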;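 further: 0% = mean of negative control wells and 100% = mean of positive control wells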
MgrA DNA FP: S. aureus MgrA-DNA binding modulation; actives 0.13% (n = 84,000); fluorescence polarization; inhibition, %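 (about 10 µg/mL by stock and volumes)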;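 active means above 50% in either of two replicates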;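 further: 0% = protein plus DNA without compound and 100% = DNA alone without protein; higher means less MgrA bound to DNA so lower polarization; one replicate is shown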
Starred values were filed as active, the others as inactive; . = no result given; & = joins results of further samples.

SMILES | S aureus helic | MgrA DNA FP
CCN1CCN(C(=O)/C(C#N)=C/c2cc(C)n(C3CCCC3)c2C)CC1 | -14 | .
CC1CCN(C(=O)c2ccc3c(c2)nnn3C)CC1 | -1 | -2.8
N#Cc1cc2c(=O)n3ccccc3nc2n(Cc2ccco2)c1=N | 1 | .
O=C1OC(c2ccc(O)cc2)Nc2ccc(C(F)(F)F)cc21 (centres undefined) | -6 | 0.7
COc1ccc(C)cc1NC(=O)N1CCN(S(C)(=O)=O)CC1 | 25 | -0.2
O=C(NCc1ccccc1)NCc1c(-n2cccc2)sc2c1CCCC2 | -5 | 0.7
Nc1nonc1N1CCCCC1 | 8 | 0.4
CCOc1ccc(NC(=O)Cn2c(Nc3ccc(OCC)cc3)nc3c2c(=O)[nH]c(=O)n3C)cc1 | 18 | -1.0
COC(=O)c1cccc(C(=O)OC)c1 | -15 | -0.5
CC1C2CCC(CO)(CC2)C1C (centres undefined) | . | -0.8
CO[C@@]1(NC(=O)Cc2cccs2)C(=O)N2C(C(=O)O)=C(COC(N)=O)CS[C@@H]21 | . | 1.7&6.2
Cc1ccc(S/C(=C/N(C)C)C(=O)c2ccc(C)cc2)cc1 | . | 0.1
NS(=O)(=O)c1ccc(CNC(=O)c2cc(=O)c3ccccc3o2)cc1 | -14 | .
CNc1nc2cc(Cl)ccc2s1 | . | 0.7
CC(=O)N/C(=C\c1cnc(-c2ccccc2)[nH]1)C(=O)O | . | 4.4
NC(=O)CSc1n[nH]c(-c2ccco2)n1 | 14 | -2.5
Cc1sc2nc(CN(CCc3ccccc3)C(=O)c3ccco3)[nH]c(=O)c2c1C | 4 | -2.0
Cc1ccc(Cl)cc1N1CCN(CCNC(=O)CCCn2sc3ccccc3c2=O)CC1 | 22 | .
Cc1cccc(NC(=O)Nc2ccc(C)c(C)c2)c1 | -4 | -0.4
O=C(c1cc(-c2ccccc2)nn1-c1ccccc1)N1CCC1 | -8 | .
Cc1ccc2cc3cc(C(=O)NCCN4CCN(c5cccc(Cl)c5)CC4)sc3nc2c1 | 15 | -2.9
O=c1cc(OCc2ccccc2)c2ccccc2[nH]1 | -1 | .
O=C(O)c1cccc(CSc2nc3ccccc3o2)c1 | 8 | 1.1
N#Cc1cccc(NC(=O)CCCc2ccccc2)c1 | 10 | 1.7
CC1CCN(c2nnc(NC(=O)Cn3c(=O)oc4ccccc43)s2)CC1 | -6 | .
SMILES | S aureus helic | MgrA DNA FP
NC(=O)c1ccc(C(F)(F)F)[nH]c1=O | . | -2.0&-1.9
COC(=O)c1ccc(NC(=S)Nc2cc(C)[nH]n2)cc1 | 9 | -2.1
CCc1cc2c(=O)c(-c3cnn(-c4ccccc4)c3)c(C)oc2cc1O | -4 | .
Cc1c(C(=O)NCc2ccccc2)oc2ccc(S(=O)(=O)N3CCCC3)cc12 | 5 | -0.4
CCc1cc2c(SCC(=O)c3ccccc3)ncnc2s1 | -19 | .
Cc1nc(C)c(CC(=O)N/N=C/c2ccc(F)cc2)c(=O)[nH]1 | 4 | 4.8
CC(C)CNC(=O)N1CCC2(CC1)NC(=O)c1ccccc1O2 | 10 | .
CCOC(=O)c1sc(N(Cc2ccccc2)C(=O)CSc2nnc(-c3ccco3)n2C)nc1C | 7 | .
Cn1nnnc1SCC(=O)NC(C)(C)C | 10 | 1.1
Cn1nc(C(F)(F)F)c2cc(NC(=O)OCC(C)(C)C)sc21 | . | -1.6
CNc1nsc(C(=O)c2ccc(F)cc2)c1N | -16 | .
Cc1ccc2c(COC(=O)c3ccccc3NCc3ccco3)cc(=O)oc2c1C | -8 | .
CC(=O)Oc1ccc(N2C(=O)C3ON(c4ccccc4)C(c4ccc(F)cc4)C3C2=O)cc1 (centres undefined) | 12 | .
O=C(NCCc1ccccc1)c1cc2sccc2n1Cc1ccc(Cl)cc1 | 4 | 1.4
CC(C)(C)NC(=O)CS(=O)(=O)c1cn(CC(=O)N2CCCCC2)c2ccccc12 | 1 | .
O=C(Nc1ccc(-n2cnnn2)cc1)c1ccccc1C(F)(F)F | 1 | .
O=C1CC(c2ccccc2Br)C2=C(CCCC2=O)N1 (centres undefined) | 7 | .
O=C(O)c1ccc(-c2nnc(-c3ccccc3Cl)o2)cc1 | 6 | 2.2
CC(C)(C)C(=O)OCc1noc(-c2ccc(Cl)c(Cl)c2)n1 | . | -0.3
CN(C(=O)CN1C(=O)C2CC=CCC2C1=O)C1CCS(=O)(=O)C1 (centres undefined) | 11 | .
CC1(C)CC(=O)C(C=NCC(O)CO)=C(O)C1 (centres undefined) | 5 | 1.6
O=C(Nc1ccccc1C(F)(F)F)c1noc2c1CCc1ccccc1-2 | -29 | .
COc1cc2[nH]c(=O)c(C(=O)NC(C)c3ccccc3)c(O)c2cc1OC (centres undefined) | 0 | -1.2
CN(C)/C=C/C(=O)c1ccsc1 | . | -0.5
COc1ccc(-c2[nH]ncc2-c2cnc(C)s2)c(O)c1 | -22 | .
SMILES | S aureus helic | MgrA DNA FP
C1=C(CCNc2nc3ccccc3n3cnnc23)CCCC1 | 11 | .
CCN(CC)C(=O)c1ccccc1NC(=O)c1ccccc1 | 15 | -0.4
N#Cc1nn(-c2ccccc2)nc1N1CCCCC1 | 0 | .
O=C(NCCN1CCCCCC1)c1ccc(CS(=O)(=O)c2ccc(Br)cc2)o1 | 9 | 0.8
CC(C)CNC(=O)c1nc(-c2ccccc2)n(-c2ccccc2)n1 | -8 | .
CCc1c(C)sc(NC(=O)c2cnn3cccnc23)c1C#N | 10 | 8.8
N=C(N=C(N)N)N(c1ccccc1)c1ccccc1 | 4 | 1.9
Cc1ccc2nc(C(F)(F)F)cc(OCCN(C)C)c2c1 | . | 0.6
CN(C(=O)CN1CCN(c2ccccc2O)CC1)c1ccccc1 | -8 | .
CC(Nc1ncnc2c1cnn2C)C1CC2CCC1C2 (centres undefined) | 13 | .
O=[N+]([O-])c1cc(Cl)c(-n2cccc2)cc1N1CCCC1 | . | 1.5
CC(C)CCOc1ccccc1C(N)=O | 4 | -0.4
CCN(CC)C(=O)N1CC(C)CC(C)C1 (centres undefined) | 0 | -0.7
O=C(Nc1ccccc1)C1CC(=O)N(Cc2ccc3c(c2)OCO3)C(=Nc2ccccc2)S1 (centres undefined) | . | 0.2
CC1=NN(c2ccc([N+](=O)[O-])cc2)C(=O)C1[N+](=O)[O-] (centres undefined) | . | -0.2
O=C(O)CCCN1C(=O)c2ccccc2C1=O | -5 | -3.3
CC(C)CNc1nc(SCC(N)=O)nc(N(C)C)n1 | 11 | -1.4
CCCN(CC(=O)Nc1ccc(S(N)(=O)=O)cc1)C(C)C(=O)Nc1cccc(Cl)c1 (centres undefined) | -10 | .
COc1ccc(CCNC2=CC(=O)OC23CCCCC3)cc1OC | 4 | 1.1
COc1cc(Nc2ncnc3c2cnn3-c2ccc(Cl)cc2)cc(OC)c1OC | -2 | .
CC(Oc1coc(CN2CCN(Cc3ccccc3)CC2)cc1=O)c1ccccc1 (centres undefined) | 16 | .
CCOC(=O)C1=C(C)N=c2s/c(=C\c3ccc(N(C)C)o3)c(=O)n2C1c1c(OC)ccc2ccccc12 (centres undefined) | . | 0.4
COc1ccc2[nH]c(C(=O)NCCN3CCCCC3)cc2c1 | -9 | .
Cc1[nH]c(=O)c(C#N)c(C)c1CCC(=O)N1CCN(S(=O)(=O)c2ccc(Cl)s2)CC1 | -9 | .
O=C(O)C1C2C=CC(O2)C1C(=O)NCc1ccccc1Br (centres undefined) | 12 | -4.9

Complete entries from above. Screens in order: S aureus helic, MgrA DNA FP
`O=C(Nc1ccccc1)C1CC(=O)N(Cc2ccc3c(c2)OCO3)C(=Nc2ccccc2)S1` (centres undefined) is listed as ., 0.2
`O=[N+]([O-])c1cc(Cl)c(-n2cccc2)cc1N1CCCC1` is listed as ., 1.5
`CC(C)CNc1nc(SCC(N)=O)nc(N(C)C)n1` is listed as 11, -1.4
`COc1ccc(CCNC2=CC(=O)OC23CCCCC3)cc1OC` is listed as 4, 1.1

Going on with the list:
SMILES | S aureus helic | MgrA DNA FP
COCCOC(=O)C1=C(C)NC(SC)=C(C#N)C1c1ccccc1Cl (centres undefined) | 0 | 0.2
N/C(=N/S(=O)(=O)c1ccc(Cl)c(Cl)c1)c1cccnc1 | . | -2.0
Cc1ccc(NC(=O)Cn2nnc(C(=O)Nc3ccc(Br)cc3)c2N)cc1F | 26 | .
CN1C/C(=C\c2ccc(F)c(F)c2)C(=O)/C(=C/c2ccc(F)c(F)c2)C1 | -8 | -0.3
CC(=O)Nc1cccc(C(=O)NC2CCN(Cc3c(F)cccc3Cl)CC2)c1 | . | -0.3
Cc1cc(Oc2ccccc2)nc(Oc2ccc(OCCOc3ccc(Br)cc3)nn2)n1 | -1 | 0.9
CC(=O)c1sc(-c2cccs2)cc1N | . | 0.6
CCc1nc2ccc(C(=O)NCCc3ccco3)cc2nc1CC | 3 | .
CC1=C2C(=NCCN1)C(=O)N(c1ccccc1)C2c1cccnc1 (centres undefined) | -12 | 11
CN1CCN(S(=O)(=O)c2ccc(Cc3ccc(S(=O)(=O)N4CCN(C)CC4)cc3)cc2)CC1 | 2 | .
COc1ccc(OC(=O)c2cc3ccccc3oc2=O)cc1 | -22 | .
O=C(NC1(C(F)(F)F)OCCO1)c1ccc(F)cc1 | 3 | .
OCC(O)C(O)C(O)C(O)c1nc2ccccc2[nH]1 (centres undefined) | -9 | .
C=C(C)Cn1c(=O)c2c(nc3n2CC(C)CN3Cc2ccccc2)n(C)c1=O (centres undefined) | 4 | .
CCN(CC)S(=O)(=O)c1ccc(C)cc1 | . | -1.6
COC(=O)Cn1c(=O)oc2ccccc21 | 2 | .
CCOC(=O)/C(C#N)=C/c1ccsc1 | -13 | .
CN(CC(=O)N=c1sccn1C)S(=O)(=O)c1ccc(Cl)cc1 | 29 | .
COc1ccc(C(=O)Nc2ccc(Cl)cc2)cc1S(=O)(=O)N1CC(c2ccccc2)CC1=O (centres undefined) | 6 | .
Cc1ccc(C2=NNC(c3cccnc3)=Nc3ccc(F)cc32)o1 | 18 | -2.2
CCC(C)n1c(SCC(=O)OC)nnc1-c1cccc(S(=O)(=O)N2CCOCC2)c1 (centres undefined) | -6 | .
O=c1cc(-c2cccs2)nc(-c2cccc(I)c2)o1 | 10 | 3.0
O=C(CN1CCC(c2nc3ccccc3s2)CC1)N1CCCCC1 | 10 | -4.0
CCc1n[nH]c(=S)c2cc3sccc3n12 | 12 | -4.5
COC(=O)c1cc(OC)c(OC)cc1NS(=O)(=O)c1ccsc1C(=O)OC | . | 2.0

Given comma-delimited: 6 of the compounds above.
SMILES,S aureus helic,MgrA DNA FP
N/C(=N/S(=O)(=O)c1ccc(Cl)c(Cl)c1)c1cccnc1,.,-2.0
Cc1ccc(NC(=O)Cn2nnc(C(=O)Nc3ccc(Br)cc3)c2N)cc1F,26,.
CN1C/C(=C\c2ccc(F)c(F)c2)C(=O)/C(=C/c2ccc(F)c(F)c2)C1,-8,-0.3
CC(=O)Nc1cccc(C(=O)NC2CCN(Cc3c(F)cccc3Cl)CC2)c1,.,-0.3
Cc1cc(Oc2ccccc2)nc(Oc2ccc(OCCOc3ccc(Br)cc3)nn2)n1,-1,0.9
CC(=O)c1sc(-c2cccs2)cc1N,.,0.6

The results go on:
SMILES | S aureus helic | MgrA DNA FP
Cc1ccc(C(=O)Oc2ccc(/C=N/c3cccs3)cc2)cc1 | 5 | -0.5
Nc1nc2sc3c(c2cc1C(=O)N1CCOCC1)CCCC3 | 10 | 2.0
Cc1nc2cc(NC(=O)NC3=NCCS3)ccc2n1C | 6 | 0.5
COC(=O)c1ccccc1NC(=S)N(N)CCO | . | 2.9
CCOC(=O)N1CCN(c2nc3c(c(=O)n(C)c(=O)n3C)n2CCSc2nnc(C)s2)CC1 | 6 | .
Nc1ncc(Br)cc1S(=O)(=O)NCCC(=O)Nc1nccs1 | -21 | .
O=C(CSc1ncnc2c1oc1ccccc12)NCc1ccccc1 | 0 | .
O=C(CSc1nc2cc(Cl)ccc2c(=O)n1Cc1ccccc1)N1CCOCC1 | 0 | .
CNC(=O)c1ccc(N2CCCS2(=O)=O)cc1 | 12 | .
CN(C)CCNC(=O)c1ccccc1 | -3 | .
CCC(Cc1ccccc1)NC(=O)c1ccc2nc(-c3ccccc3NC(C)=O)c(=O)[nH]c2c1 (centres undefined) | 17 | -0.2
Cc1c(C(=O)Nc2ccc(S(=O)(=O)N3CCCCC3C)cc2)oc2ccccc12 (centres undefined) | 8 | 4.7
C=C1C(C(=O)Nc2nccs2)C1C(=O)Nc1nccs1 (centres undefined) | 20 | .
CCOC(=O)c1c(C)[nH]c(C)c1S(=O)(=O)Nc1cc(C)cc(C)c1 | 20 | .
Cc1ccc(S(=O)(=O)c2nc(NCCN3CCOCC3)sc2Cl)cc1 | 0 | -0.2
COc1ccc2nc(NC(=O)CSc3nc4ccc([N+](=O)[O-])cc4[nH]3)sc2c1 | . | 0.6
C/C(=N\NC(=O)Cn1nnc(-c2cccc(C(F)(F)F)c2)n1)c1ccncc1 | -13 | .
Cc1cccc(C(=O)N/C(=C/c2ccco2)C(N)=O)c1 | 8 | 6.8
O=c1oc2ccccc2n1CCCOc1ccccc1 | 15 | .
O=C1CCCC(O)=C1C=NCc1ccccc1 | 5 | -0.8
Cc1cc(N2CCN(C)CC2)nc2ccc(NC(=O)NC3CCCC3)cc12 | 20 | .
O=C(NCCc1ccccn1)c1ccc2nccnc2c1 | . | -3.6
N#CCCN(Cc1ccccc1)C(=O)c1ccccc1 | 2 | 2.1
CN(C)c1nc(N2CCCCC2)nc(N2CCCCC2)n1 | 4 | .
COc1ccc(N2C(=O)/C(=C/c3ccc(OCc4ccccc4C#N)c(OC)c3)C(=O)NC2=S)cc1 | . | 8.7
COc1ccc2cc3cc(C(=O)N4CCC5(CC4)OCCO5)oc3nc2c1 | 9 | 0.9
CCOC(=O)c1cnc2c(C(=O)OC)c[nH]n2c1=O | -5 | .
COc1ccccc1N1CCN(C(=O)c2ccc(/C=C3\Oc4ccccc4NC3=O)cc2)CC1 | -17 | 1.9

This is a subset; the hit share may differ from the screen's.
